# High-throughput results from PubChem BioAssay.
# Polio RdRp inh = poliovirus RNA polymerase inhibition. P03300. poliovirus polymerase elongation, fluorescence polarization; active compounds read low. % elongation, % (compound at 16.7 µg/mL). 0.66% of 150,000 active. AID 588519; in the data active means % elongation below about 90%; further: some results filed as inactive read as strong as hits
# Target sequence (P03300 1749-2209 limits assumed): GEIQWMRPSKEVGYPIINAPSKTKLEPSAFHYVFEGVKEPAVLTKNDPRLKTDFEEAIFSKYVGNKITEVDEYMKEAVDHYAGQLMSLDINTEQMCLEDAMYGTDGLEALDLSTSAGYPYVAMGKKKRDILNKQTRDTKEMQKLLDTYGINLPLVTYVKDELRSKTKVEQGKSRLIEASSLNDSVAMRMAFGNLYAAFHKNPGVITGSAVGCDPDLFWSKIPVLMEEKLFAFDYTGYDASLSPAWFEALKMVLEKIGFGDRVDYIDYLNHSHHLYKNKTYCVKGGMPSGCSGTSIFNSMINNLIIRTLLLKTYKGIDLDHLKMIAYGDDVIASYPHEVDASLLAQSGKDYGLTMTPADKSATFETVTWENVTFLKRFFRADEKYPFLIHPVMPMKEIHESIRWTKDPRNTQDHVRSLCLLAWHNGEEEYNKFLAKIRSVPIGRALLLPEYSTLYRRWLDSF
# MenB inh = blocks the Mycobacterium tuberculosis MenB enzyme; P9WNP5; MenB enzyme assay, absorbance read-out; some hits fall short of the stated cut; inhibition, %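 (about 12 µg/mL by stock and volumes)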; 0.43% of 100,000 active; AID 540299;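 active means mean of two replicates above 30%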;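 further: 0% = no compound and 100% = wells with inactive enzyme; the first replicate is given; strong numbers were not always called active; inactives centre near -10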
# Target sequence (P9WNP5 whole entry, looked up): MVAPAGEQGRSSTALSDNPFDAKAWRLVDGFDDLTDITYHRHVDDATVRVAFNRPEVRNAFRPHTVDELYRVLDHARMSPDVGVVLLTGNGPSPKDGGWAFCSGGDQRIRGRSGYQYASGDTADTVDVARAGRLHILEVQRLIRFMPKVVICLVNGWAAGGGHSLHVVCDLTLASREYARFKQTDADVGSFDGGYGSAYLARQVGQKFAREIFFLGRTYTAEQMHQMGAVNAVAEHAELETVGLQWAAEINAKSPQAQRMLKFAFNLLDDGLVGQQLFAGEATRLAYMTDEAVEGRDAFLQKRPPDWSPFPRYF
# MbtI inh = inhibitors of Mycobacterium tuberculosis siderophore enzyme MbtI; AID 493033; 0.89% of 100,000 active; P9WFX0; inhibition, %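 (about 17 µg/mL by stock and volumes)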; purified MbtI enzyme, fluorescence intensity read-out;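 active means above 50% in both replicates, above 80% if mildly self-fluorescent; inactive means the rest, strongly fluorescent compounds included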;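 further: 0% = mean of negative and 100% = mean of positive controls; one replicate is shown; some compounds called inactive have numbers as strong as hits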
# Polio RdRp inh intensity = second read-out of Polio RdRp inh, no call of its own (marks repeat the call); % elongation; measured here: total intensity read-out; formula for this scale not given here;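 total fluorescence in place of polarization; lower means less elongation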
# * = called active by the depositor; x = no result given; & = joins results of further samples.
SMILES,Polio RdRp inh,Polio RdRp inh intensity,MenB inh,MbtI inh
CC1CCN(C(=O)c2ccc(C(C)(C)C)cc2)CC1,98,104,2,x
O=C(Cn1c(=O)n(Cc2ccccc2)c(=O)c2ccccc21)NCCC1=CCCCC1,101,101,-1,6
CCCNc1sc(S(=O)(=O)CC)nc1S(=O)(=O)c1ccc(C)cc1,99,102,-13,12
O=C(c1[nH]c2ccccc2c1Sc1ccc(Cl)cc1)N1CCCC1,99,99,-20,8
S=C(Nc1cccnc1)Nc1ccccc1N1CCCCC1,100,102,5,38
O=c1c(O)c(-c2ccc3c(c2)OCO3)oc2ccccc12,102,100,-8,4
O=C(N/N=C/c1ccc[nH]1)c1ccccc1O,103,106,-28,77
C[N+]1(CC(=O)OCCCC2CCCCC2)CCCCC1,103,108,-12,-8
CCSc1nc2c(c(=O)n1C)SCC2,101,105,0,3
Nc1nonc1-n1nnc(C(=O)N/N=C2\CCc3ccccc32)c1-c1ccccc1,100,102,-17,-16
CSC1=C(C#N)C2(CCCCC2)C2=C(CCC2)N1,96,102,0,x
Cc1oc2ncn(CC(C)C)c(=O)c2c1C(=O)N=C1NC(=O)CS1,102,104,-1,-19
COc1ccc(-c2cc3nc4c(c(N5CC(C)CC(C)C5)n3n2)CCC4)cc1 (configuration not stated),102,103,-11,6
O=C(OCc1nnc(-c2ccccc2)o1)C1CC(=O)N(c2ccccc2)C1 (configuration not stated),101,102,10,5
Cc1cc(C)c(NC(=O)c2[nH]c3c(c2C)C(=O)CCC3)c(C)c1,95,101,4,4
O=C(Cn1c(=O)oc2ccccc21)NCCc1ccccc1,102,105,11,-3
COc1ccc(CCN2C(=O)C3C4C=CC(O4)C3C2=O)cc1OC (configuration not stated),101,101,-15,9
O=C(O)c1cc(Cl)ccc1OCc1ccccc1,103,102,-14,1
CC(=O)NC(CC(C)C)C(=O)O (configuration not stated),103,101,-12,-10
O=C(CCN1C(=O)C2CC=CCC2C1=O)N1CCN(c2ccccn2)CC1 (configuration not stated),101,106,-9,107
Cc1cc(NC(=O)c2ccccc2OCc2ccccc2)no1,101,104,x,-5
COc1ccc(CNC(=O)C2CCCN(c3ncnc4onc(-c5ccc(F)cc5)c34)C2)cc1 (configuration not stated),105,103,-37,-46
Cc1[nH]c2ccccc2c1C(c1ccccc1)N1CCN(C)CC1 (configuration not stated),104,100,-3,43
N#Cc1ccccc1OCC(=O)OCc1ccccc1F,102,104,x,-12
COc1ccc(C2OC(c3ccc(S(=O)(=O)N4CCCCC4)cc3)=NN2C(C)=O)cc1 (configuration not stated),100,99,-5,104
CC(C)=NNC1=NC(C)(C)Cc2ccccc21,100,100,10,7
CC(C)Sc1nc2cc(S(=O)(=O)N3CCCCC3)ccc2o1,106,105,-23,-5
CCOC(=O)c1cc(-c2ccc(OC)cc2)n(CCC(=O)N2CCc3ccccc32)c1C,99,103,-11,-1
COc1ccccc1CNS(=O)(=O)Cc1ccccc1,102,103,17,15
CCOC(=O)c1c(N2C(=O)C3ON(c4ccccc4C)C(c4ccccc4)C3C2=O)sc(C)c1C (configuration not stated),102,108,-9,-6
O=C(Nc1ccc2c(c1)OCO2)c1cc(S(=O)(=O)N2CCN(c3ccccc3)CC2)ccc1Cl,103,110,-32,-2
Brc1cnc2nc(-c3ccccc3)[nH]c2c1,116,123,-4,-36
O=C(Nc1ccc(C(F)(F)F)cc1)c1cnc(N2CCN(c3ccccn3)CC2)c2ccccc12,106,107,-6,52
O=C1CC(N2CCCc3ccccc32)C(=O)N1c1ccc(Br)cc1F (configuration not stated),102,104,1,-10
O=C1CCCC/C1=C/Nc1ccc(N/C=C2/CCCCC2=O)cc1,99,120,-28,x
O=C(NCc1ccco1)C1=NN(c2ccccc2)C(=O)CC1,108,105,11,-9
Cc1cnc(NC(=O)[C@@H](NC(=O)c2ccccc2F)C(C)C)s1,105,95,-8,-4
COC(=O)c1cc(N)cc(C(=O)OC)c1,109,108,6,104
CC(C)(C)OC(=O)Nc1cccc(C(=O)O)c1,106,104,-23,10
CC1=C(C(N)=O)C(c2ccco2)C(C#N)=C(SCC(N)=O)N1 (configuration not stated),101,100,-12,4
CN1CCN(C(=O)c2ccc(C(=O)N3CCN(C)CC3)cc2)CC1,103,102,-70,-4
COc1cc2c(cc1OC)CN(C(=O)CCNC(=O)c1ccccc1Cl)CC2,106,105,-16,3
Cc1nc2cc(N)ccc2n1-c1ccccc1,101,100,x,-4
C/C(=N\NC(=O)CCc1ccc(S(=O)(=O)N2CCOCC2)cc1)c1ccc2c(c1)OCCO2,103,98,9,8
c1cnc2c(CN3CCOCC3)cccc2c1,101,106,x,-5
CCCNS(=O)(=O)c1ccc2c(c1)oc(=O)n2CC(=O)OCC,102,110,-6,-9
COc1ccc2c(c1)c(CC(=O)NCc1ccco1)c(C)n2C(=O)c1ccc(Cl)cc1,97,103,-15,-4
O=C1Cc2cc(S(=O)(=O)NC3CCCCC3)ccc2N1,100,103,-8,-2
CCCNC(=O)c1nnc(Cc2ccc3c(c2)OCO3)o1,105,104,1,-3
CN(Cc1ccccc1)C(=O)Cn1ncc2c([nH]c3ccccc32)c1=O,102,104,5,23
C=CCSc1n[nH]c(C(C)(C)C)n1,102,110,4,-9
O=C(Nc1ncn[nH]1)C1CCN(S(=O)(=O)c2ccc(Cl)cc2)CC1,101,101,6,-8
O=C(Nc1ccc(Cl)c(C(F)(F)F)c1)c1nccnc1CO,100,105,8,0
Cn1c(=O)cc(SCC(=O)NCCCN2CCN(c3ccccc3F)CC2)c2ccccc21,100,103,-4,5
Cc1cc(C(=O)Nc2cccc3c2CCCC3)n[nH]1,101,101,-5,-13
CC1CCCC(NS(=O)(=O)CC23CCC(CC2=O)C3(C)C)C1C (configuration not stated),104,97,-35,-5
CN(CCC#N)S(=O)(=O)c1cc(Br)ccc1Br,103,100,-26,-2
O=c1[nH]c2ccccc2c(=O)n1CCNCc1ccccc1,106,98,11,42
Cc1cc(=O)[nH]c(SCC(=O)NC2CCCCC2)n1,103,99,-35,-17
COc1ccc(NC(=O)C(NC(=O)c2ccccc2)C(C)C)cn1 (configuration not stated),102,113,10,-1

# Pulled by compound from above, 4 records:
SMILES,Polio RdRp inh,Polio RdRp inh intensity,MenB inh,MbtI inh
N#Cc1ccccc1OCC(=O)OCc1ccccc1F,102,104,x,-12
CCCNc1sc(S(=O)(=O)CC)nc1S(=O)(=O)c1ccc(C)cc1,99,102,-13,12
CSC1=C(C#N)C2(CCCCC2)C2=C(CCC2)N1,96,102,0,x
CC1CCN(C(=O)c2ccc(C(C)(C)C)cc2)CC1,98,104,2,x

# Next section.
SMILES,Polio RdRp inh,Polio RdRp inh intensity,MenB inh,MbtI inh
Cc1[nH]n(-c2ccc(Cl)cc2)c(=O)c1C(=O)c1ccccc1,105,102,-27,1
OC1CCN(CCc2ccccc2)CC1,101,101,-25,-11
NC1=Nc2cc(=O)[nH]c3nnc(n23)SC1,104,103,-39,-4
O=C(NC1CCCCCC1)C1C2C=CC3(CN(Cc4cccnc4)C(=O)C13)O2 (configuration not stated),101,105,4,8
COc1ccc(-c2noc(N(CCC#N)c3ccccc3)n2)cc1,105,105,-30,-12
CSc1ncc(C(=O)OCC(=O)N2CC(C)OC(C)C2)n1-c1ccccc1 (configuration not stated),102,106,-13,-8
COc1cc2c(cc1OC)C(c1ccccc1)N(C(=O)c1ccco1)CC2 (configuration not stated),99,103,-9,4
O=C(NCCCN1CCOCC1)c1cc2ccccc2oc1=O,102,102,4,87
C=CCn1c(=S)[nH]c2cc(C(=O)N3CCN(c4ccccc4OC)CC3)ccc2c1=O,x,x,-18,-5
COC(=O)c1cc2oc3ccccc3c2n1CC(=O)NCCC1=CCCCC1,103,107,-5,2
COC(=O)C1=C(C)NC(C)=C(C(=O)OCCN(C)Cc2ccccc2)C1c1cccc([N+](=O)[O-])c1 (configuration not stated),99&100&102&102,103&102&103&100,-10&-6&-17,-15&-10&-10
Cc1ccc(-c2cc(C(F)F)nc(NC3CCCCC3)n2)cc1,104,99,-16,44
Cc1cc(C)cc(NC2=NS(=O)(=O)c3ccccc32)c1,103,102,-8,-9
C=C(C)c1nc2cc(OC)c(OC)cc2c(=O)o1,102,98,-13,3
O=C1C(c2nc3ccccc3[nH]2)=C(O)c2ccccc21,101,102,7,-16
CN1C(=O)/C(=C/C=C2\SCCN2C)SC1=S,81,231,-2,x
Cc1n[nH]c(C)c1NC(=O)CSc1nnc(-c2ccoc2C)n1-c1ccccc1,104,111,-18,4
Cc1cccc(C(=O)NC2CCN(CC(=O)N3CCOCC3)CC2)c1,103,104,-54,-29
CCOC(=O)c1nc(-c2ccc(F)cc2)no1,101,102,5,-26
CC1CCN(C(c2ccncc2)c2ccc3cccnc3c2O)CC1 (configuration not stated),137,149,-51,43
Cc1sc2nc(CSCC(=O)OC(C)(C)C)[nH]c(=O)c2c1C,110,107,-23,12
C=C(C)COc1cc(O)c2c(=O)cc(-c3ccccc3)oc2c1,104,103,-4,1
CCCCCn1c(=O)[nH]c2cc(C(=O)N3CCN(c4cc(C)ccc4C)CC3)ccc2c1=O,101,100,-30,-7
Cc1ccc(NC(=O)n2ccnc2)cc1NC(=O)n1ccnc1,111,112,-7,x
COc1ccc(CNC(=O)COC(=O)Cc2n[nH]c(=O)c3ccccc23)cc1,106,102,-1,-16
O=C(OCCOc1ccccc1)c1ccccc1C(=O)N1CCN(c2ccc(F)cc2)CC1,105,107,-25,-17
CCCCCCCCCCCCC/C=C/[C@@H](O)[C@H](CO)NC(=O)CCCCCCCCCCCCCCC,99&99,99&98,10,0
CN(C)C(=O)Cn1c(=O)oc2ccccc21,105,106,-8,x
Cc1ccc2c(c1)-c1c(ssc1=S)C(C)(C)N2C(=O)c1ccncc1,102,96,-7,-1
Clc1ccccc1C1N(Cc2ccccc2)CCN1Cc1ccccc1,100,97,-20,-8
CC1(C)N=C2C(=N)C=CC=C2N1O,96,84,-59,9
CCC(=O)N1CCN(C(=O)CC)C1c1ccccc1,101,100,2,-6
Cc1cc(C)n2cc(CSC3=NCCS3)nc2n1,105,108,-12,107
O=C(CCc1c[nH]c2ccccc12)N(Cc1cccnc1)c1ccc2c(c1)OCO2,121,143,-33,-3
CC(C)(C)c1n[nH]c(C(C)(C)C)c1Cc1c(F)cccc1Cl,102,108,-4,-8
N#Cc1nc(-c2ccccc2)oc1NCCCn1ccnc1,100,101,28,88
O/N=C1\CCc2ccccc2\C1=N/O,101,105,-51,25
Cc1cc(=O)[nH]c(SC(C)C(=O)Nc2ccccc2)n1 (configuration not stated),99,102,9,7
Cc1c(C#N)c2nc3ccccc3n2c(=O)/c1=C/NN1C(=O)CNC1=S,56,247,-89,-11
NC1=NC(=O)C(CC(=O)Nc2cccc(C(=O)Nc3ccc4c(c3)OCCO4)c2)S1 (configuration not stated),105,95,-18,-3
N#C/C=C1\SCC(=O)N1CC(=O)c1ccc(Br)cc1,90,223,-31,0
COc1cc(Cl)c(C)cc1NC(=O)CSC,100,100,-10,9
CN(C)C12CC3CC(CC(C(=O)O)(C3)C1)C2,99,101,-26,-10

# Structural class, those above containing four or more nitrogen atoms
SMILES,Polio RdRp inh,Polio RdRp inh intensity,MenB inh,MbtI inh
S=C(Nc1cccnc1)Nc1ccccc1N1CCCCC1,100,102,5,38
Nc1nonc1-n1nnc(C(=O)N/N=C2\CCc3ccccc32)c1-c1ccccc1,100,102,-17,-16
Cc1oc2ncn(CC(C)C)c(=O)c2c1C(=O)N=C1NC(=O)CS1,102,104,-1,-19
COc1ccc(-c2cc3nc4c(c(N5CC(C)CC(C)C5)n3n2)CCC4)cc1 (configuration not stated),102,103,-11,6
O=C(CCN1C(=O)C2CC=CCC2C1=O)N1CCN(c2ccccn2)CC1 (configuration not stated),101,106,-9,107
COc1ccc(CNC(=O)C2CCCN(c3ncnc4onc(-c5ccc(F)cc5)c34)C2)cc1 (configuration not stated),105,103,-37,-46
O=C(Nc1ccc(C(F)(F)F)cc1)c1cnc(N2CCN(c3ccccn3)CC2)c2ccccc12,106,107,-6,52
CC1=C(C(N)=O)C(c2ccco2)C(C#N)=C(SCC(N)=O)N1 (configuration not stated),101,100,-12,4
CN1CCN(C(=O)c2ccc(C(=O)N3CCN(C)CC3)cc2)CC1,103,102,-70,-4
CN(Cc1ccccc1)C(=O)Cn1ncc2c([nH]c3ccccc32)c1=O,102,104,5,23
O=C(Nc1ncn[nH]1)C1CCN(S(=O)(=O)c2ccc(Cl)cc2)CC1,101,101,6,-8
Cn1c(=O)cc(SCC(=O)NCCCN2CCN(c3ccccc3F)CC2)c2ccccc21,100,103,-4,5
NC1=Nc2cc(=O)[nH]c3nnc(n23)SC1,104,103,-39,-4
COc1ccc(-c2noc(N(CCC#N)c3ccccc3)n2)cc1,105,105,-30,-12
C=CCn1c(=S)[nH]c2cc(C(=O)N3CCN(c4ccccc4OC)CC3)ccc2c1=O,x,x,-18,-5
Cc1n[nH]c(C)c1NC(=O)CSc1nnc(-c2ccoc2C)n1-c1ccccc1,104,111,-18,4
CCCCCn1c(=O)[nH]c2cc(C(=O)N3CCN(c4cc(C)ccc4C)CC3)ccc2c1=O,101,100,-30,-7
Cc1ccc(NC(=O)n2ccnc2)cc1NC(=O)n1ccnc1,111,112,-7,x
Cc1cc(C)n2cc(CSC3=NCCS3)nc2n1,105,108,-12,107
N#Cc1nc(-c2ccccc2)oc1NCCCn1ccnc1,100,101,28,88
Cc1c(C#N)c2nc3ccccc3n2c(=O)/c1=C/NN1C(=O)CNC1=S,56,247,-89,-11
NC1=NC(=O)C(CC(=O)Nc2cccc(C(=O)Nc3ccc4c(c3)OCCO4)c2)S1 (configuration not stated),105,95,-18,-3

# The order is random; any-hit rate near 1.7%.
